# Screens deposited in PubChem by ICCB-Longwood Screening Facility, Harvard Medical School.
# KSHV LANA nucl: LANA-nucleosome interaction inhibition; FITC-LANA1-23 / chicken nucleosome fluorescence polarization; hits give low values; z-score (no concentration beside the values); 51,000 compounds, 0.3% hits;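 active means both repeat wells score below -2 in polarization z-score versus plate sample wells, excluding overly bright wells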;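 further: 100 nL library stock added to about 30 µL; numbers are from one replicate; some results filed as inactive read as strong as hits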
#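 test system = FITC-LANA peptide and chicken nucleosomes | amount = 240 nM purified chicken nucleosomes (480 nM peptide binding sites), final | reagent = 50 nM FITC-LANA1-23 probe | medium = TEN-BT buffer, pH 7.5 | doses = single compound addition by pin transfer, 100 nL per well | timing = 10–45 min, room temperature | detection = fluorescence polarization | repeats = duplicate plates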
# Ab BasE inh: blocks the Acinetobacter baumannii siderophore enzyme BasE; inhibition, % (concentration not given with the values); 84,000 compounds, 0.1% hits; AID 485350; purified BasE, fluorescence polarization binding displacement;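 active means both replicates above 25% with normal brightness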;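 further: 0% = negative plate control signal and 100% = positive plate control signal; stock transfer was 100 nL into about 30 µL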
# * hit, by the source's call; nt = no result given; & = joins results of further samples. An excerpt; count on the stated rates, not on these rows.
# Every second line gives: KSHV LANA nucl	Ab BasE inh
1: CC(C)CC(NC(=O)Cc1ccsc1)C(=O)NN (stereo unspecified)
 : nt	-4.6
2: Cc1ccc(-c2onc(C)c2C)cc1S(=O)(=O)NCCC1=CCCCC1
 : nt	1.1
3: O=C(NCc1ccccn1)/C(=C/c1ccccc1Cl)c1ccccc1
 : nt	6.0
4: O=C(NCc1ccccc1)NC(=O)c1ccccc1I
 : -1.26	0.7
5: Cc1cc(/C=N/n2c(SCC(=O)O)nnc2-c2ccoc2C)cc(C)c1O
 : nt	0.9
6: CC1CCCC(NC(=O)COC(=O)Cc2cccs2)C1C (stereo unspecified)
 : nt	1.1
7: Cn1c(=O)c(C(=O)NCCc2ccccc2)cc2cccnc21
 : 0.206	2.0
8: CC1(C)CC(NC(=O)NCc2ccc3c(c2)OCO3)CC(C)(CNC(=O)NCc2ccc3c(c2)OCO3)C1 (stereo unspecified)
 : -0.8	0.2
9: CC1CCCCN1S(=O)(=O)c1ccc(S(=O)(=O)NCc2ccc(F)cc2)cc1 (stereo unspecified)
 : 0.061	3.9
10: O=C1CCCN1c1ccc(S(=O)(=O)N2CCCCC2)cc1
 : 0.198	0.5
11: CC(C)NS(=O)(=O)c1ccc(OCC(N)=O)cc1
 : -0.561	-1.4
12: O=C(Nc1ccn([C@H]2CC[C@@H](CO)O2)c(=O)n1)c1ccccc1
 : -0.548	1.4
13: N#CN=C(N)CSc1nc(-c2ccccc2)cc(-c2ccccc2)c1C#N
 : -0.257	1.5
14: O=C(CNCc1ccccc1F)Nc1ccc(N2CCCC2)cc1
 : -0.585	-0.7
15: COc1ccc(C2CC(=O)C3=C(C2)NC(C)=C(C#N)C3c2ccc(N(C)C)cc2)cc1 (stereo unspecified)
 : 0.113	0.3
16: O=C1N(c2ccccc2)C(c2ccc(C(F)(F)F)cc2)C1(F)F (stereo unspecified)
 : nt	-0.5
17: CN(CCC#N)C(=O)Cn1nc(Cc2cccnc2)c2ccccc2c1=O
 : -0.426	0.1
18: O=C(NC(=S)Nn1cnnc1)c1ccc(F)cc1Cl
 : nt	-1.8
19: CCCCS(=O)(=O)Nc1ccc2c(c1)ncn2C1CCCCC1
 : 1.9	-3.7
20: CSc1ncnc2nc[nH]c12
 : nt	3.4
21: Cn1cnc(S(=O)(=O)NCc2ccc3c(c2)OCO3)c1
 : -0.245	-0.6
22: C=CCn1c(C)cc(C(=O)CSc2nc(O)cc(=O)n2CCC)c1C
 : nt	-2.2
23: CS(=O)(=O)c1cccc(C(=O)Nc2nccs2)c1
 : 0.831	1.7
24: O=C(/C=C/c1ccc(S(=O)(=O)N2CCOCC2)cc1)N(CCO)Cc1ccccc1
 : nt	2.4
25: CN(Cc1ccccc1)c1ncnc2c1nc1n2CCCCC1
 : -0.37	0.0
26: CC(C)N=C(NC#N)NC(C)C
 : 1.71	-4.8
27: CCOC(=O)C1=CC2c3ccc(Br)cc3C=CC2OC1=O (stereo unspecified)
 : nt	0.9
28: CC1(C)S[C@@H]2[C@H](N=CN3CCCCCC3)C(=O)N2[C@H]1C(=O)O
 : -0.128	nt
29: CCc1n[nH]c(=S)n1/N=C1\C(=O)N(CC(C)C)c2ccccc21
 : nt	0.4
30: NC[C@@H]1CC[C@@H](N)[C@@H](O[C@H]2[C@H](O)[C@@H](O[C@H]3O[C@H](CO)[C@@H](O)[C@H](N)[C@H]3O)[C@H](N)C[C@@H]2N)O1
 : 0.01	-2.0
31: O=C(NC(=S)Nc1ccccc1Cl)c1cnn2c(C(F)(F)F)cc(C(F)(F)F)nc12
 : nt	0.1
32: CC(C)C(=O)Oc1ccc2c3c(c(=O)oc2c1)CCC3
 : -0.513	-1.9
33: S=C(Nc1ccccc1)NC1CC2CCCC(C1)N2C1CC1 (stereo unspecified)
 : 0.407	-0.2
34: COC(=O)c1cc(O)cc(C(=O)OC)c1
 : nt	1.8
35: Cc1cc(/C=C/C(=O)NCCc2ccccn2)c(C)n1Cc1ccco1
 : nt	-4.4
36: COCCn1c(O)c(C=NCCCCCc2nc(-c3ccc(C)cc3)no2)c(=O)[nH]c1=S
 : nt	1.7
37: Cc1cc(C(c2nnnn2Cc2ccccc2)N2CCOCC2)c(C)n1-c1ccc2c(c1)OCO2 (stereo unspecified)
 : 0.796	-0.3
38: NC(=O)C1CCN(c2nc(Nc3ccc(Cl)cc3)nc(Nc3ccc(Cl)cc3)n2)CC1
 : 0.299	1.7
39: NNC(=O)C1C(=O)NCC1c1ccccc1 (stereo unspecified)
 : -0.343	0.3
40: O=C1c2cccc3cccc(c23)N1CN1CCc2ccccc2C1
 : nt	2.2
41: CCOC(=O)N1CCC(NC(=O)c2cc3c(-c4ccc(Cl)cc4)nn(C)c3s2)CC1
 : 0.981	3.3
42: CCCCn1cnc2sc3c(c2c1=N)CCCCC3
 : nt	-1.9
43: CN1CCN(S(=O)(=O)c2ccc3oc(=O)c4ncn(C)c4c3c2)CC1
 : -0.203	2.3
44: CN1CCN(NC(=O)COc2ccc(Br)cc2Cl)CC1
 : 0.104	1.4
45: O=C(CNC(=O)c1ccc2c(c1)OCO2)NC1CC1
 : nt	4.1
46: Cc1ccc(C(=O)O)cc1NC(=O)CN1CC(=O)Oc2ccccc21
 : 0.131	1.3
47: Cc1ccc(C2=NC3(CCN(C(=O)c4ccccc4)CC3)NC2=O)cc1
 : -2.01	0.2
48: O=C(O)CCc1ccc(-c2ccc(F)cc2)n1CCC(=O)O
 : -2.12*	2.4
49: Cn1c(CN2CCCC2)nc2cc(NC(=O)c3ccccc3)ccc21
 : 0.879	-14.7
50: COC(=O)c1ccccc1NC(=O)C1CCCC1
 : 0.023	-1.9
51: Cc1nn(-c2ccc(Cl)cc2)c2sc(C(=O)N(C)C3CCCCC3)cc12
 : nt	1.0
52: O=C(NCc1ccco1)c1ccc2c(=O)n(-c3ccccc3)c(=O)n(CC(=O)N3CCN(c4ccccc4)CC3)c2c1
 : -0.872	2.9
53: CC1(C)CC(=O)C2=C(C1)OC1=C(C(=O)CC(C)(C)C1)C2c1cccc(O)c1
 : -0.353	-1.0
54: O=c1c[n+]([O-])c2ccccc2n1OCc1ccccn1
 : -0.209	-1.7
55: CC1CCCCC1NC(=O)CSc1nnc(CN2CCCC2=O)o1 (stereo unspecified)
 : nt	0.6
56: O=C(NC(CO)C(=O)O)c1ccncc1 (stereo unspecified)
 : -0.657	1.3
57: N#CCc1nc2ccccc2n1C(=O)CCN1C(=O)c2ccccc2C1=O
 : nt	1.7
58: COc1ccc(NC(=O)c2ccc3c(c2)C(=O)N(Cc2cccnc2)C3=O)cc1
 : -1.22	3.9
59: CN(C)CCCSC(=N)N
 : -0.059	-2.1
60: Cc1ccc2c(c1)C1OCCC1C(c1ccncc1)N2 (stereo unspecified)
 : -0.977	2.0

# Copied from the list.
# For Ab BasE inh, entry 42 has -1.9
# For KSHV LANA nucl, entry 9 has 0.061
# For KSHV LANA nucl, entry 21 has -0.245

# Three compounds out of the list, ordered by molecular weight, largest number first.
# Every second line gives: KSHV LANA nucl	Ab BasE inh
47: Cc1ccc(C2=NC3(CCN(C(=O)c4ccccc4)CC3)NC2=O)cc1
 : -2.01	0.2
46: Cc1ccc(C(=O)O)cc1NC(=O)CN1CC(=O)Oc2ccccc21
 : 0.131	1.3
54: O=c1c[n+]([O-])c2ccccc2n1OCc1ccccn1
 : -0.209	-1.7

# Additional compounds follow.
# Every second line gives: KSHV LANA nucl	Ab BasE inh
61: COCCn1c(=O)/c(=C\c2ccccc2OC(F)F)s/c1=C(/C#N)C(=O)N1CCOCC1
 : nt	-0.6
62: CC(C(=O)N1CCCc2ccccc21)N1C(=O)c2ccccc2C1=O (stereo unspecified)
 : -0.405	1.7
63: CNS(=O)(=O)c1cccc(C(=O)NCCc2ccc(S(N)(=O)=O)cc2)c1
 : nt	1.4
64: CCCCCCCC/C=C\CCCCCCCC(=O)OCC(CO)OC(=O)CCCCCCC/C=C\CCCCCCCC (stereo unspecified)
 : 0.973	-3.1
65: O=C(NCCCN1CCCC1=O)c1cccs1
 : 0.14	0.2
66: Nc1nn(-c2cccc(F)n2)cc1-c1ccc(Cl)cc1
 : -1.36	nt
67: Cc1noc(C)c1COC(=O)c1ccccc1SCC(=O)N1CCCC1
 : nt	0.1
68: CCc1ccc(C(N)c2cccs2)cc1 (stereo unspecified)
 : nt	-6.4
69: N=C(N)N1CCN(Cc2ccc3c(c2)OCO3)CC1
 : 0.0885	0.8
70: O=C(Nc1ccc2c(c1)OCCO2)c1ccccc1NCC(=O)N1CCc2ccccc21
 : nt	3.2
71: N#CC(C#N)=CNCCN1CCN(C=C(C#N)C#N)CC1
 : 0.072	2.0
72: CCCCN(CC)Cc1c(C)[nH]c2ccc(Cl)cc2c1=O
 : 0.91	1.1
73: CN(CCOc1ccc(Cl)cc1)Cc1cc2c(cc1O)OCO2
 : nt	1.5
74: CC1Cc2ccccc2N1C(=O)c1ccc(Cl)cc1 (stereo unspecified)
 : 0.0525	0.3
75: CCOC(=O)C(C)Oc1cc(O)c2c(=O)cc(-c3ccccc3)oc2c1 (stereo unspecified)
 : nt	-0.4
76: CC(C)(C)C(=O)Nc1nc(NC(=O)C(C)(C)C)nc(-c2ccccc2C(F)(F)F)n1
 : nt	2.2
77: COCOC(=O)C1(c2ccc(Cl)cc2)CCCC1
 : nt	0.8
78: O=C(CCn1c(SCC(=O)NC2CCCC2)nc2ccccc2c1=O)NC1CCCCC1
 : 0.516	-1.7
79: CCOC(=O)c1c(C)oc(-c2ccc(Cl)cc2)c1S(=O)(=O)NCc1ccccc1
 : nt	0.8
80: COCCNC(=O)c1cc(-c2ccccc2F)no1
 : -0.733	1.4
81: O=C1NC(=O)C(c2ccccc2)c2ccccc21 (stereo unspecified)
 : 0.586	nt
82: Nc1cc(=O)[nH]c(SCC(=O)N(C2CCCCC2)C2CCCCC2)n1
 : nt	2.9
83: O=C(OCC(=O)N1CCOCC1)c1ccc(-c2ccccc2)cc1
 : nt	-4.4
84: O=C1CC(C(F)(F)F)=NN1c1ccccc1
 : nt	2.4
85: Cc1nonc1OCC(C)(N)COc1nonc1C
 : -1.08	1.2
86: O=C(O)c1cc(NN=C2CCCC2)ccc1Cl
 : nt	1.9
87: CC(C)CCNC(=O)C1CCCN(S(=O)(=O)N2CCOCC2)C1 (stereo unspecified)
 : -0.67	0.6
88: CCOc1ccc(C(=O)NN2CCN(C)CC2)cc1
 : -1.1	-1.2
89: COc1cccc(-n2cc(C(=O)Nc3ccc(C)cn3)c3ccccc3c2=O)c1
 : 0.628	1.6
90: O=C(COC(=O)c1cc2ccccc2oc1=O)Nc1ncccn1
 : nt	3.9
91: O=C(Nc1ccc(N2C(=O)C3C4C=CC(C4)C3C2=O)cc1)Nc1ccccc1O (stereo unspecified)
 : -0.666	1.1
92: C#CC1(NC(=O)NC(=O)c2ccccc2Cl)CCCCC1
 : 0.827	-0.9
93: NC(CCc1nc2ccccc2[nH]1)c1nc2ccccc2[nH]1 (stereo unspecified)
 : -0.377	4.8
94: COc1ccc(S(=O)(=O)NC2CCCc3ccccc32)cc1OC (stereo unspecified)
 : -0.22	-1.4
95: N#CCCn1c(SCc2cc3c(cc2Br)OCO3)nc2ccccc21
 : nt	0.4
96: CC1CN(C(=O)COC(=O)c2cccs2)CC(C)O1 (stereo unspecified)
 : nt	1.9
97: O=C(CSCc1ccc(Br)cc1)N1CCCC1
 : -1.06	1.2
98: CC(=O)NS(=O)(=O)c1ccc(N)cc1
 : 0.02&-0.219&1.85	1.5&-2.2
99: NC(=O)c1ccc(-c2ccccc2)o1
 : nt	0.8
100: Nc1nc2c(ncn2COC(CO)CO)c(=O)[nH]1
 : 0.445&-0.153	-0.1
101: CCN(CC)S(=O)(=O)c1ccc(N2CCCCC2)c(C(=O)O)c1
 : nt	-0.1
102: COc1ccccc1NC(=O)N1CCN(C(c2ccccc2)c2ccccc2)CC1
 : nt	2.3
103: CC1=C(C(=O)O)N2C(=O)[C@@H](NC(=O)[C@H](N)C3=CCC=CC3)C2SC1 (stereo partly specified)
 : 1.09&-0.732	0.7
104: COc1ccccc1CNC(=O)CSCc1nc(-c2ccccc2F)oc1C
 : 0.476	-1.9
105: c1csc(CCNc2ncnc3sc4c(c23)CCC4)c1
 : nt	0.3

# Gathered by group: the compounds so far containing fluorine.
# Every second line gives: KSHV LANA nucl	Ab BasE inh
9: CC1CCCCN1S(=O)(=O)c1ccc(S(=O)(=O)NCc2ccc(F)cc2)cc1 (stereo unspecified)
 : 0.061	3.9
14: O=C(CNCc1ccccc1F)Nc1ccc(N2CCCC2)cc1
 : -0.585	-0.7
16: O=C1N(c2ccccc2)C(c2ccc(C(F)(F)F)cc2)C1(F)F (stereo unspecified)
 : nt	-0.5
18: O=C(NC(=S)Nn1cnnc1)c1ccc(F)cc1Cl
 : nt	-1.8
31: O=C(NC(=S)Nc1ccccc1Cl)c1cnn2c(C(F)(F)F)cc(C(F)(F)F)nc12
 : nt	0.1
48: O=C(O)CCc1ccc(-c2ccc(F)cc2)n1CCC(=O)O
 : -2.12*	2.4
61: COCCn1c(=O)/c(=C\c2ccccc2OC(F)F)s/c1=C(/C#N)C(=O)N1CCOCC1
 : nt	-0.6
66: Nc1nn(-c2cccc(F)n2)cc1-c1ccc(Cl)cc1
 : -1.36	nt
76: CC(C)(C)C(=O)Nc1nc(NC(=O)C(C)(C)C)nc(-c2ccccc2C(F)(F)F)n1
 : nt	2.2
80: COCCNC(=O)c1cc(-c2ccccc2F)no1
 : -0.733	1.4
84: O=C1CC(C(F)(F)F)=NN1c1ccccc1
 : nt	2.4
104: COc1ccccc1CNC(=O)CSCc1nc(-c2ccccc2F)oc1C
 : 0.476	-1.9
